Cruzain inh noDet: blocks cruzain activity in detergent-free assay | P25779 | purified cruzain, Z-FR-AMC fluorescence, no detergent | Potency, µM, inactives show max response, negative = inhibition, hits mostly inhibitors | actives 2.3% (n = 200,000); active = well fitted curve in the direction sought with a large enough effect; inconclusive = small, poorly fitted or top-dose-only effect, or another doubt; inactive = no such curve, though single readings can be large; an effect the other way counts as inactive or inconclusive;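 also: plate controls were enzyme without inhibitor for no effect and buffer without enzyme for full effect; nearly all actives have a fitted effect of over 40% in size; top concentration of the series not given in the record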
Target sequence (P25779 123-467 limits assumed): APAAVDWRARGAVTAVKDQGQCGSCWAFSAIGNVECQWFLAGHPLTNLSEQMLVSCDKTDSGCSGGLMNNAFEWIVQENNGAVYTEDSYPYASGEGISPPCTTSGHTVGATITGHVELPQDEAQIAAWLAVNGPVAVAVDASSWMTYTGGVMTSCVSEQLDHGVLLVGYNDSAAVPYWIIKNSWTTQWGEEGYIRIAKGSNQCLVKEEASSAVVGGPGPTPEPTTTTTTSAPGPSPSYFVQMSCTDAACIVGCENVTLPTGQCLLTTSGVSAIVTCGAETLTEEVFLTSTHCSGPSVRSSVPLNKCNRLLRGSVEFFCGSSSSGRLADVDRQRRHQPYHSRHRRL
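Purified cruzain at 1.5 nM, pre-incubated 15 min with compound at room temperature in 100 mM sodium acetate pH 5.5, 5 mM DTT, 0.00005% Triton X-100. Reaction started with 2 uM Z-FR-AMC; AMC fluorescence increase over 60 s gives rate.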
MARV entry inh: Marburg virus entry inhibition; Marburg virus pseudotyped entry inhibition, cell reporter; control for the full effect not named in the record; about a third of the inactives were read at about 46 µM; Potency, µM (titrated, usually from 37.8 µM), for inactives: at the highest dose activity change, negative = inhibition, actives largely listed as inhibitors; AID 540276; actives 1.8% (n = 300,000); active = well fitted inhibition curve with a large enough effect; inconclusive = small, poorly fitted or top-dose-only effect, or effect the other way; inactive = flat fitted curve, though single readings scatter; tested in HEK293 cells; about a fifth of its hits are not listed in these tables; also: % is scaled to controls: 0 for no effect and ±100 for the full control effect; luciferase read-out
RE007 growth inh: less growth of the S. pombe RE007 Vpr strain. S. pombe RE007 Vpr strain, BacTiter-Glo ATP luminescence, 24 h; control for the full effect not named in the record. Potency, µM (top dose mostly 92.2 µM), without a hit: at the top dose activity change, negative = less growth. actives 0.21% (n = 360,000); active = well fitted falling curve with a large enough effect; inconclusive = small, poorly fitted or top-dose-only effect; inactive = no such curve, though single readings can be large or run the other way;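 also: % is scaled to controls: 0 for no effect and ±100 for the full control effect; nearly all actives have a fitted effect of over 50% in size; the assay follows cell death caused by Vpr and the record does not say whether a fall means rescue or toxicity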
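Fission yeast RE007 carrying one integrated HIV-1 vpr copy, seeded at OD 0.01 in PMG+AL medium with 23 nL pinned compound. Grown 24 h at 30 degrees; viability read by BacTiter-Glo luminescence after 5 min.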
Lassa entry inh: inhibitors of Lassa virus binding or cell entry; Lassa virus pseudotype entry inhibition, cell reporter; control for the full effect not named in the record; Potency, µM (series often up to 37.9 µM), without a hit: top-dose activity change, negative = inhibition, usual class: inhibitors; actives 1.2% (n = 300,000); AID 540256; active means well fitted inhibition curve with a large enough effect; inconclusive means small, poorly fitted or top-dose-only effect, or effect the other way; inactive means flat fitted curve, though single readings scatter; tested in HEK293 cells; also: % is scaled to controls: 0 for no effect and ±100 for the full control effect; nearly all actives have a fitted effect of over 50% in size; luciferase read-out
SARS PLpro yeast: SARS-CoV PLP inhibition in yeast; S. cerevisiae expressing SARS-CoV PLpro, growth rescue; control for the full effect not named in the record; Potency, µM (titrated, usually from 32.9 µM), for the others: at the top dose activity, positive = growth rescue; actives 0.19% (n = 330,000); AID 485353; also: 0% is about no effect; nearly all actives have a fitted effect of over 55% in size; growth read by luminescence after 48 h
Cruzain Triton: blocks cruzain activity in presence of Triton detergent. P25779. actives 0.43% (n = 200,000). Potency, µM, for the others: max response, negative = inhibition, hits mostly inhibitors. purified cruzain, Z-FR-AMC fluorescence, 0.01% Triton; active = well fitted curve in the direction sought with a large enough effect; inconclusive = small, poorly fitted or top-dose-only effect, or another doubt; inactive = no such curve, though single readings can be large; an effect the other way counts as inactive or inconclusive;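 also: plate controls were neutral wells for no effect and buffer without enzyme for full effect; nearly all actives have a fitted effect of over 40% in size; top concentration of the series not given in the record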
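Detergent-containing run (0.01% Triton X-100) in acetate buffer pH 5.5 with 5 mM DTT: enzyme at 1.5 nM final, 15 min compound preincubation at room temperature, then 2 uM Z-FR-AMC substrate. Activity taken as 60 s fluorescence increase at 360/450 nm.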
NS1 function inh: blocks influenza NS1 protein function. S. cerevisiae slowed by influenza A NS1, growth recovery by OD600. Potency, µM (highest dose often 46.1 µM), for inactives: top-dose activity, positive = more growth. actives 0.4% (n = 270,000); also: actives are rising curves; nearly all actives have a fitted effect of over 50% in size
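S. cerevisiae expressing influenza A NS1, grown in glucose, washed, then diluted 1:100 into pH 6.0 -URA galactose medium with 23 nl compound. Growth recovery read as OD600; NS1-free strain serves as control.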
StopGo reporter: lowers the luciferase signal of an FMDV 2A StopGo reporter. actives 1.2% (n = 410,000). human cells with a luciferase reporter of 2A StopGo recoding; control for the full effect not named in the record. AID 1159524. Potency, µM (doses to about 57.9 µM), for the others: at the highest dose signal change, negative = less light; active = well fitted falling curve with a large enough effect; inconclusive = small, poorly fitted or top-dose-only effect; inactive = no such curve, though single readings can be large or run the other way; tested in HEK293T cells; also: % is scaled to controls: 0 for no effect and ±100 for the full control effect; nearly all actives have a fitted effect of over 45% in size; luciferase light after 4 h
Numbers without * were called inactive; ? = inconclusive; . = no result given; & = joins results of further samples; [ ] = remark or other dose. Unless noted, calls follow the shape of the dose curve; as a rule, active means well fitted rising curve with a large enough effect; inconclusive means small, poorly fitted or top-dose-only effect; inactive means no such curve, though single readings can be large or run the other way. Potency is read from the fitted curve at half-maximal effect.

SMILES | Cruzain inh noDet | MARV entry inh | RE007 growth inh | Lassa entry inh | SARS PLpro yeast | Cruzain Triton | NS1 function inh | StopGo reporter
S=c1[nH]nc(COc2ccccc2)n1/N=C/c1ccc(Br)cc1 | . | . | -3% | . | 1% | . | 3% | -1%
CN(C)C(CNC(=O)c1cccc(S(=O)(=O)NCc2ccccc2)c1)c1ccccc1 (stereo not given) | . | -28%[46.1 µM] | -23% | -4% | -3% | . | . | 51%[activator]
C=CCc1cccc2cc(C(=O)Nc3ccc(S(=O)(=O)Nc4nnc(CC)s4)cc3)c(=O)oc12 | -12% | 9% | 3% | 0% | ? | -8.6% | 9% | -25%
N#CCN1CCC2(O)CCCCC2C1c1ccc2c(c1)OCO2 (stereo not given) | . | -1%[46.1 µM] | 9% | 4% | 0% | . | 1% | -16%
Cn1c(=O)[nH]c(=O)c2c1nc(NCCCn1ccnc1)n2Cc1ccc(F)cc1 | -1% | -4%[46.1 µM] | -9% | -3% | 2% | -1.0% | 2% | -2%
Cc1ncsc1CCC(=O)N1CCCC(C(=O)c2ccc3c(c2)OCO3)C1 (stereo not given) | . | ? | -12% | ? | -1% | . | -2% | -12%
Cc1cc(SCc2cc(=O)n3ccsc3n2)nc2ccccc12 | -2% | ? | 26% | -13% | -41% | 1.3% | -33% | -29%
O=S(=O)(c1cccc2nsnc12)N1CCN(Cc2ccccc2)CC1 | . | -1% | -10% | 2% | 0% | . | 2% | -15%
Cc1cc(-c2ccc(S(=O)(=O)NCc3ccccc3Cl)s2)on1 | -5% | . | . | 20%[46.1 µM] | . | -6.3% | . | -4%
Cc1nn(C)c(C(=O)N/N=C/c2ccccc2)c1[N+](=O)[O-] | 10% | 11% | -6% | -4% | 7% | -5.0% | -9% | 10%
CCc1occc(=O)c1Oc1cc(NN2CCCCC2)c([N+](=O)[O-])cc1[N+](=O)[O-] | . | . | 4% | . | 5% | . | 21% | -26%
COC(=O)c1ccc2c(c1)S(=O)(=O)NC(=NCc1ccco1)S2 | -1% | ? | -4% | 2% | 7% | -1.3% | -1% | 28%
Cc1ccc(NC(=O)c2snnc2C)cc1Cl | . | 12%[46.1 µM] | -12% | 9%[46.1 µM] | -3% | . | . | -8%
CNC(=O)NC1CCCc2ccccc21 (stereo not given) | -7% | -1% | 9% | -29% | ? | 1.5% | 7% | 12%
Cc1ccc(CNC(=O)C2CCC(=O)N2Cc2ccc(F)cc2)cc1 (stereo not given) | . | -23%[46.1 µM] | 9% | ? | 0% | . | 1% | -3%
CC(C)C[C@H](NC(=O)[C@@H](Cc1ccccc1)n1c(=O)[nH]c2ccccc2c1=O)C(=O)N[C@@H](Cc1ccccc1)C(=O)O | . | . | 5% | . | -1% | . | 27% | -20%
O=C(Cn1nc(-c2ccccc2)ccc1=O)NCc1ccc(F)cc1 | . | 11%&11% | -7% | ? | -1% | . | . | 0%
Cc1ccc(-c2cc(NC(=O)COc3ccc(Cl)c(C)c3)on2)cc1 | -25% | 8%[46.1 µM] | . | -2%[46.1 µM] | . | -1.2% | . | 14%
COc1ccc(OC)c(NC(=O)N2CCCc3ccccc32)c1 | . | -16%[46.1 µM] | -14% | -21%[46.1 µM] | -3% | . | -2% | -3%
O=C(Nc1ccc(S(=O)(=O)Nc2nccs2)cc1)/C(=C/c1ccccc1Cl)NC(=O)c1ccccc1 | -1% | 7% | 23% | 1% | 0% | -4.5% | ? | 44%[activator]
CCOC(=O)N/N=C\c1ccccc1OC/C=C/c1ccccc1 | . | . | 8% | . | 1% | . | 6% | 1%
Cc1onc(-c2ccccc2)c1CNS(=O)(=O)c1cccc(Cl)c1 | . | 15% | -5% | 1% | 1% | . | 6% | 24%
CCOc1ccc(OCCCCNC(C)(C)C)cc1 | . | . | 9% | . | -1% | . | 4% | 0%
CSc1ccccc1C(=O)Nc1ccccc1C(=O)NC(C)C | . | -8% | -5% | -10% | -1% | . | -8% | -14%
O=C(Nc1cccc(C(=O)O)c1)/C(=C/c1ccc2c(c1)OCO2)NC(=O)c1cccc(Br)c1 | . | 3%[46.1 µM] | -14% | 13% | -1% | . | ? | 15%
SMILES | Cruzain inh noDet | MARV entry inh | RE007 growth inh | Lassa entry inh | SARS PLpro yeast | Cruzain Triton | NS1 function inh | StopGo reporter
Cc1csc(SCC(=O)Nc2cccc(S(=O)(=O)N3CCOCC3)c2)n1 | . | 0%[46.1 µM] | 5% | 0%[46.1 µM] | 1% | . | . | 15%
O=S(=O)(c1ccc(F)cc1)n1ccc2cccnc21 | -6% | -16% | 15% | 16% | 0% | -0.4% | -1% | 10%
COC(=O)C1C2c3ccccc3OC1(C)N=c1s/c(=C/c3cn(C)nc3C)c(=O)n12 (stereo not given) | ? | -2% | 22% | ? | 4% | -6.3% | -8% | 0%
Cc1cccc(-c2nc(CS(=O)CC(=O)NC3CCCCC3)c(C)o2)c1 (stereo not given) | . | 10%[46.1 µM] | -3% | 20%[46.1 µM] | 5% | . | ? | 33%[activator]
Cc1nc(-c2ccc(F)cc2)c(CC(=O)N(C)CC(=O)Nc2ccccc2Cl)s1 | . | 27% | -1% | 3% | -6% | . | . | 10%
Cc1[nH]c(C)c(S(=O)(=O)N2CCN(c3ccccc3F)CC2)c1C(=O)N1CCCC1 | . | . | -1% | . | 1% | . | -2% | 12%
CCCC(=O)Nc1ccc(S(=O)(=O)N2CCCC2)cc1 | 3% | 21% | 3% | -16% | 1% | 5.5% | 0% | -13%
Cc1csc(SC(C)C(=O)NCC2CCCO2)n1 (stereo not given) | . | 4% | 3% | 6% | 10% | . | . | -2%
COc1ccccc1NC(=S)N1CCOCC1 | 15% | -7% | . | 2% | 9% | -3.1% | -7% | -15%
CCOC(=O)c1ccc2c(c1)nc(COc1ccc3ccccc3c1)n2CC | 3% | 4.6µM* | 8% | ? | 8% | -1.0% | 3% | -16%
COc1cc(C)c(Cl)cc1S(=O)(=O)NCCCN1CCOCC1 | 6% | -2% | -7% | 40%[14.3 µM] | -2% | 2.7% | 0% | 38%[activator]
CCOP(=O)(OCC)c1nc(-c2cccc3ccccc23)oc1NCc1ccc(OC)cc1 | . | ? | -6% | ? | 0% | . | . | 10%
CC(=O)N1CCc2cc(Br)cc(S(=O)(=O)N3CCC(C(=O)Nc4ccc(C(C)C)cc4)CC3)c21 | ? | -23%[46.1 µM] | . | ? | . | -6.3% | . | ?
O=C1/C(=C\c2ccccc2)CCC/C1=C/c1ccccc1 | . | ? | -24% | ? | . | . | . | 16%
CC(=O)NCCc1ccc(S(=O)(=O)Nc2cccnc2)cc1 | 13% | 8% | 5% | 9% | 0% | 7.7% | 4% | .
CCOC(=O)C(C)n1cnc2c1c(=O)[nH]c(=O)n2C (stereo not given) | -2% | 15% | -7% | 6% | -30% | 3.9% | -2% | .
COC(=O)c1cc(NC(=O)c2nn(C)c3c2CSc2ccccc2-3)cc(C(=O)OC)c1 | 15% | ? | . | 8%[46.1 µM] | . | -3.2% | . | -4%
O=C(CCCn1c(=O)oc2ccccc21)N1CCN(c2ccc(F)cc2)CC1 | . | 3%[46.1 µM] | -12% | -11% | -1% | . | -46% | -6%
CC(C)Oc1cccc(C(=O)C2CCCN(Cc3cccn3-c3ccccn3)C2)c1 (stereo not given) | . | ? | -19% | 11µM* | -1% | . | -1% | 9%
CCC(C(=O)Nc1cccc(C#N)c1)n1nc(-c2ccccc2)ccc1=O (stereo not given) | -6% | ? | . | -8%[46.1 µM] | . | -6.3% | . | -18%
CC12CN3CCN(C1)CC(C)(C3)C2=NN | . | -30%[14.2 µM] | -11% | -6% | 0% | . | 1% | -17%
COc1cccc(CNC(=O)CSc2nc3ccc(C)cc3[nH]2)c1 | . | . | -3% | . | -1% | . | 1% | 0%
COc1cccc(COC(=O)C2CC(=O)N(Cc3ccco3)C2)c1OC (stereo not given) | . | ? | 9% | ? | -1% | . | 8% | -2%
CCOc1ccccc1N(C)S(=O)(=O)c1ccc2c(c1)CC(C)N2C(=O)C1CC1 (stereo not given) | . | ? | 10% | ? | 26% | . | -4% | -27%
COc1ccc(N2CCN(CCc3ccncc3)CC2)cc1 | . | 14%[46.1 µM] | 0% | 13%[46.1 µM] | -2% | . | -1% | -8%
SMILES | Cruzain inh noDet | MARV entry inh | RE007 growth inh | Lassa entry inh | SARS PLpro yeast | Cruzain Triton | NS1 function inh | StopGo reporter
Cc1cccc(C(=O)NC(=S)Nc2c(C)n(C)n(-c3ccccc3)c2=O)c1 | . | 9%[46.1 µM] | 2% | -3%[46.1 µM] | . | . | . | -10%
CC(=O)c1cccc(NS(=O)(=O)c2c(C(=O)N3CCCCCC3)c(C)n(C)c2C)c1 | 1% | . | . | -2%[46.1 µM] | . | -1.7% | . | 42%[activator]
CCOc1ccc(NC(=O)CSc2nnc(CNC(=O)C34CC5CC(CC(C5)C3)C4)n2CC)cc1 | ? | -6%[46.1 µM] | . | -10%[46.1 µM] | . | 0.2% | . | -15%
CCOc1ccc(S(=O)(=O)Nc2ccc(S(=O)(=O)N3CCOCC3)cc2)cc1 | 1% | 0% | 6% | 5% | . | -0.2% | -64% | 13%
Cc1ccc(Cl)cc1NC(=O)C(NS(=O)(=O)c1cccs1)c1ccccc1 (stereo not given) | 1% | ? | -4% | ? | 12% | -5.1% | 7% | ?
O=C(COc1ccccc1)Nc1ccccc1N1CCN(c2ccccc2)CC1 | -3% | -13% | 4% | -15% | 1% | -0.4% | -9% | .
COc1ccc(-c2ccc(SCC(=O)N3CC(=O)Nc4ccccc43)nn2)cc1 | . | ? | -6% | ? | 1% | . | 3% | 18%
COc1ccccc1/C=C/C=N/n1c(-c2ccc(Cl)cc2)n[nH]c1=S | . | -17% | -6% | ? | -2% | . | 7% | 32%[activator]
O=C(NNC1CC(=O)N(c2ccc(Br)cc2)C1=O)c1cccnc1 (stereo not given) | . | 8%[46.1 µM] | 5% | ? | -2% | . | . | -9%
O=C(Nc1cc(F)cc(F)c1)c1ccc(NCCCN2CCCCCC2)c([N+](=O)[O-])c1 | . | ? | 0% | 2% | 2% | . | . | -13%
O=C(Nc1ccon1)c1cccc(C(F)(F)F)c1 | -7% | -6% | 9% | 23% | -2% | 3.4% | -4% | -4%
